High-throughput results from PubChem.
RecA intein inh: Mtb RecA intein splicing inhibitors, primary screen, biochemical, fluorescence, HTS; cell-free RecA intein splicing; inhibition, %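 (about 9 µM by stock and volumes)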; hit rate 0.75% among 290,000; AID 2221, 2009; in the data active means inhibition above about 30%; inconclusive means no clear call, values can overlap the other calls;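 further: 0% = vehicle wells and 100% = reference inhibitor control wells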
Target sequence (P9WHJ3 whole entry, looked up): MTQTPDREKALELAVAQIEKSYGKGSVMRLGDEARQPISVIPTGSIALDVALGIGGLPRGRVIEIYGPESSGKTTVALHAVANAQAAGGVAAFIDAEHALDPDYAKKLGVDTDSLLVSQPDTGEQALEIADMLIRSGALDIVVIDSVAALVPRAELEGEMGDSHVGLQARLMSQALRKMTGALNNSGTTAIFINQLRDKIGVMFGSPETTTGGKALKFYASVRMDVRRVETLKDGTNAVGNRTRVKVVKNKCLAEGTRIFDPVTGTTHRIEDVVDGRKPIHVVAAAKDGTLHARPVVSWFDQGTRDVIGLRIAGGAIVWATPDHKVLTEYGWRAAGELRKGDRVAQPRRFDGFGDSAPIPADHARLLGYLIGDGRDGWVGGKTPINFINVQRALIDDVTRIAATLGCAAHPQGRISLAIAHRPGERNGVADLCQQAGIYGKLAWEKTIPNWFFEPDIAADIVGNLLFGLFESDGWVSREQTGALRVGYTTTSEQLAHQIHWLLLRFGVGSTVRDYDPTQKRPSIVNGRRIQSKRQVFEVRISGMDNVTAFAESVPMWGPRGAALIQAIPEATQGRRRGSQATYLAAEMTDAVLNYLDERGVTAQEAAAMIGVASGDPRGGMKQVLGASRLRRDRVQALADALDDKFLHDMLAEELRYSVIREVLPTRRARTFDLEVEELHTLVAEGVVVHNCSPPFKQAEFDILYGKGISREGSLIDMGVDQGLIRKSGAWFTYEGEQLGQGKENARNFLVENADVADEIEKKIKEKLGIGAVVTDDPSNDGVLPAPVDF
Arbovirus inh: antivirals against arbovirus infection, primary screen, cell-based, full library, 10K replicate subset; arbovirus infection cell-based antiviral screen; inhibition, % at 10 µM; hit rate 0.37% among 200,000;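 active means inhibition from about 30%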;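 further: bluetongue infection of BSR cells; cell survival read as ATP light after 72 h; 0% = infected wells without compound and 100% = uninfected wells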
YopH inh: YopH tyrosine phosphatase inhibitors, primary screen, biochemical, fluorescence Ex485/Em525; YopH tyrosine phosphatase [Yersinia enterocolitica]; inhibition, %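 (about 10 µM by stock and volumes)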; AID 898, 2007; hit rate 0.16% among 140,000;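 active means inhibition of 50% or more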;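 further: controls were vehicle for no effect and minimum signal wells for full effect; inactives centre near -20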
Mtb H37Rv: M. tuberculosis H37Rv growth inhibitors, H37Rv strain (AID 1626) | M. tuberculosis H37Rv growth inhibition; higher % means a stronger effect | one-dose inhibition, % at 10 µM; IC50 in µM for titrated hits | hit rate 0.95% among 220,000;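 active means confirmed in a dose series; inconclusive means inhibition above 80% but not taken into the dose series; inactive means below 80% or under 30% at every dose of the series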;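 further: bacteria incubated seven days before Alamar blue readout; 0% = bacteria only wells and 100% = bacteria with antibiotic wells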
Mtb bLac sens: beta-lactam sensitization of Mtb H37Rv, H37Rv | M. tuberculosis H37Rv growth with meropenem, percent inhibition; hits of this screen are not shown here | inhibition, % at 25 µM | hit rate 0.27% among 330,000 | AID 434955, 2010;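 active means about 74% or more and at least 40 points above the plate without the antibiotic, then above 30% in a dose series; inconclusive means first-round hits that could not be retested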;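 further: growth measured after seven days incubation then overnight dye step; 0% = bacteria only wells and 100% = bacteria with antibiotic; twin plates without the antibiotic show which effects depend on it; some results filed as inactive read as strong as hits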
Arbovirus inh repeat: also measured in Arbovirus inh; calls as there; inhibition, %; measured here: 10K subset replicate screen; many hits read low in the repeat;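 first of two repeat runs on a subset; 0% = infected and 100% = uninfected wells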
The depositor's hits bear a star; u = inconclusive; x = no result given. Not all compounds are listed. The share of hits here may be higher or lower than overall.

SMILES	RecA intein inh	Arbovirus inh	YopH inh	Mtb H37Rv	Mtb bLac sens	others
O=C(Nc1ccc([N+](=O)[O-])cc1)c1cccc(S(=O)(=O)Nc2ccccn2)c1	0.5	x	x	x	7
S=C1c2ccccc2CN1c1ccccc1	7.0	-2	-21	2%	1
COc1cc(NC(=O)COC(=O)CNS(=O)(=O)c2ccc(F)c(F)c2F)cc(OC)c1	0.6	-7	-8	0%	-4
CCN(Cc1cc2cc(C)ccc2[nH]c1=O)S(=O)(=O)c1ccccc1	1.3	-4	-14	-6%	1
Cn1c(-c2ccc[nH]c2=O)nc2cc(Cl)ccc21	0.8	3	-22	-4%	0
O=C1NC(c2ccc3c(c2)OCO3)Nc2ccccc21 (stereo not given)	-1.6	-18	-45	-4%	-5
O=C(NCCCNC(=O)c1cnccn1)c1ccc(Cl)c(Cl)c1	5.8	x	x	x	-8
O=C(CN1CCN(c2ncccn2)CC1)N1CCc2ccccc21	-2.1	-8	-10	-7%	-1
CCOC(=O)C(=O)Nc1sc(C(=O)N(CC)CC)c(C)c1C#N	0.7	-2	x	0%	0
O=C(O)c1cc(NC(=O)c2ccc([N+](=O)[O-])cc2)cc(NC(=O)c2ccc([N+](=O)[O-])cc2)c1	-2.3	x	x	x	-6
COC(=O)CSC1=C(C#N)C(c2ccccc2)CC(=O)N1 (stereo not given)	-0.3	-18	-3	-3%	1
CCC1(c2ccccc2)NC(=O)N(CC(=O)Nc2ccc(S(N)(=O)=O)cc2)C1=O (stereo not given)	0.2	x	x	x	-1
CC(C)C(=O)Nc1ccc2oc(-c3cc(F)c(F)cc3Cl)nc2c1	3.1	-12	-7	5%	8
CCOC(=O)C1CCN(C(=O)CCNS(=O)(=O)c2cc(Br)cnc2N)CC1	-3.4	x	x	x	u
Cn1c(C(=O)O)c(CC(=O)N2CCN(Cc3ccccc3)CC2)c2ccccc21	0.5	1	-21	-14%	-6
COc1ccc(/C=N/NC(=O)CCn2nc(C)cc2C)cc1O	-2.0	x	x	-1%	-5
COc1cc2c(cc1OC)/C(=C/C(=O)c1ccc(F)cc1)NCC2	6.3	x	x	x	4
CC(C)Cn1cnc2c(c(-c3ccccc3)c(-c3ccccc3)n2Cc2ccco2)c1=N	19	-30	13	u	100
Cc1ccc(-c2nn(Cc3ccccc3)cc2C=O)cc1C	-0.3	6	-16	7%	7
CCn1c(SCc2ccccc2Cl)nc2ccccc21	13	-11	2	8%	24
C=CCNS(=O)(=O)c1ccc(OCC(=O)OCC)cc1	-1.2	1	9	8%	4
Cc1ccc(C(=O)NC(C)c2ccc(S(N)(=O)=O)cc2)s1 (stereo not given)	-0.8	x	x	x	-7
C#CCNc1ccc([N+](=O)[O-])cc1	2.6	-3	x	8%	3
N#Cc1c(/N=C/c2cccs2)sc2c1CCC2	-0.8	-8	-33	-6%	-9
COc1ccccc1N(C(C)=O)c1nc(C)cc(C)c1C#N	0.4	-3	-29	-9%	2
CCCc1cc(=O)[nH]c(SCC(=O)N2CCN(S(=O)(=O)c3ccc(Cl)cc3)CC2)n1	-0.6	-2	-35	-2%	1
Cc1nnsc1Sc1cccc(C(F)(F)F)c1	1.6	5	-45	51%	-8
CN1CC(c2ccc(C#N)cc2)C2(COc3ccccc3C2=O)C12C(=O)Nc1ccccc12 (stereo not given)	12	3	-25	-6%	32
Cc1ccccc1OCc1n[nH]c(=S)n1Cc1ccccc1	0.5	12	-12	16%	1
Cc1nc2c(Cl)cc(Cl)cc2[nH]1	4.8	4	1	-3%	-1
COC(=O)CN1C(=O)[C@@H]2[C@H](C1=O)[C@@H]1CC(C(=O)OC)=C[C@@H](C(=O)OC)[C@@H]3C1=C(C(=O)[C@]3(C)NC(=O)c1ccccc1)[C@@H]2C	-2.2	x	x	-5%	-3
O=C(NO)c1ccccc1C(F)(F)F	2.2	-27	x	4%	3
Cc1ccc(S(=O)(=O)NNC(=O)C2CCN(S(=O)(=O)c3ccc(C)cc3)CC2)cc1	-5.5	4	-31	-2%	0
COc1ccccc1OP(=O)(Nc1cccnc1)Oc1ccccc1OC	0.5	16	1	-2%	1
CC(=O)Nc1ccc(NC(=O)CC2Nc3cccc4cccc(c34)NC2=O)cc1 (stereo not given)	-2.1	6	-31	x	1
CC(C)N1CCN(Cc2cc(F)ccc2-n2cccn2)CC1CCO (stereo not given)	-7.3	6	x	6%	3
Cc1ccc(NC(=O)CCn2c(=S)oc3ccccc32)cc1	1.6	-7	x	4%	2
COc1ccc(N(CC(=O)NCc2ccccc2OC)S(=O)(=O)c2ccc(C)cc2)cc1Cl	17	x	x	x	5
O=C(CCc1ccccc1)N=C1SC2CS(=O)(=O)CC2N1c1ccc(F)cc1 (stereo not given)	0.9	x	x	x	-2
CC1Cc2ccccc2N1C(=O)Cn1nc(C(=O)O)c2ccccc2c1=O (stereo not given)	-0.2	6	7	12%	-13
Cc1ccccc1CC(=O)NCc1cccnc1	-1.6	x	x	x	-6
COc1ccccc1CNC(=O)c1sccc1C	1.6	x	x	x	4
OC1CCN(Cc2cccc3ccccc23)CC1	22	x	x	-6%	4
CCCC(=O)Nc1nc(C)c(C(C)=O)s1	-4.3	-5	x	0%	-2
COc1cccc(CC(=O)NC2CCCN(Cc3ccccc3F)C2)c1 (stereo not given)	-3.1	x	x	x	-6

A draw from above in order of heavy-atom count, low to high:
SMILES	RecA intein inh	Arbovirus inh	YopH inh	Mtb H37Rv	Mtb bLac sens	others
CCCC(=O)Nc1nc(C)c(C(C)=O)s1	-4.3	-5	x	0%	-2
Cc1ccc(NC(=O)CCn2c(=S)oc3ccccc32)cc1	1.6	-7	x	4%	2
Cc1ccc(S(=O)(=O)NNC(=O)C2CCN(S(=O)(=O)c3ccc(C)cc3)CC2)cc1	-5.5	4	-31	-2%	0

Remaining list, next part.
SMILES	RecA intein inh	Arbovirus inh	YopH inh	Mtb H37Rv	Mtb bLac sens	others
Cc1cc(NC(=O)c2cc(-c3ccco3)on2)nn1Cc1ccc(Cl)cc1	1.2	3	-36	x	9
CC(C)CC(=O)NC(=S)Nc1nc(-c2ccc(Cl)cc2)cs1	8.3	3	-5	18%	46
O=C(CSCCc1ccccn1)Nc1cccnc1Cl	2.4	10	-7	-4%	x
CCCCC(=O)Nc1cccc(-c2cn3ccccc3n2)c1	0.0	-2	-35	17%	0
CN1CCN(CCC(C#N)(c2ccccc2)c2ccccc2)CC1	-0.3	-16	-4	-10%	-6	Arbovirus inh repeat=-9
CC(C)NCC(O)Cn1c2c(c3ccccc31)CCc1c-2cnn1-c1ccccc1 (stereo not given)	-8.1	-29	-44	10µM*	100
COc1ccc(C(=O)NCc2ccccc2OC)c(OC)c1	1.1	-5	-58	-12%	2
COc1ccccc1-n1cnnc1SCC(=O)c1cc(C)n(Cc2cccs2)c1C	3.6	1	8	-8%	-1
O=C(NCc1cccnc1)c1nc(-c2cccs2)no1	-1.1	6	x	3%	0
COC(CNC(=O)c1ccc(N2CCC3(CC2)OCCO3)c([N+](=O)[O-])c1)OC	1.1	6	-7	5%	1
CCN(CC)CCN(C(=O)/C=C/c1cccs1)c1nc2ccc(Cl)cc2s1	-1.3	x	x	x	2
Cc1ccccc1NC(=S)N(CCCN1CCCCC1)Cc1ccco1	-1.0	1	-13	5%	u
N#Cc1cnc(NCc2ccc(Cl)cc2Cl)nc1	-2.0	x	x	x	4
COc1cc(/C=N/n2nnnc2N)cc(Cl)c1OC	1.5	x	x	x	-9
C=CCSc1nc(C)c(Cc2cccc3ccccc23)c(=O)[nH]1	3.3	9	x	7%	-2

Compounds listed so far that have an NH in an aromatic ring, in the order listed:
SMILES	RecA intein inh	Arbovirus inh	YopH inh	Mtb H37Rv	Mtb bLac sens	others
CCN(Cc1cc2cc(C)ccc2[nH]c1=O)S(=O)(=O)c1ccccc1	1.3	-4	-14	-6%	1
Cn1c(-c2ccc[nH]c2=O)nc2cc(Cl)ccc21	0.8	3	-22	-4%	0
CCCc1cc(=O)[nH]c(SCC(=O)N2CCN(S(=O)(=O)c3ccc(Cl)cc3)CC2)n1	-0.6	-2	-35	-2%	1
Cc1ccccc1OCc1n[nH]c(=S)n1Cc1ccccc1	0.5	12	-12	16%	1
Cc1nc2c(Cl)cc(Cl)cc2[nH]1	4.8	4	1	-3%	-1
C=CCSc1nc(C)c(Cc2cccc3ccccc23)c(=O)[nH]1	3.3	9	x	7%	-2

Other structures
SMILES	RecA intein inh	Arbovirus inh	YopH inh	Mtb H37Rv	Mtb bLac sens	others
CCOC(=O)c1nn(-c2ccc(OCC)cc2)c2nc(-c3cccc(OC)c3)c(C#N)c(=O)n12	-11	-9	-11	33%	-15
Cc1[nH]c2ccccc2c1C(=O)C(=O)N1CCN(c2ccccc2F)CC1	1.8	x	x	x	4
CC(Oc1cccc(F)c1)C(=O)/C=C\N(C)C (stereo not given)	x	11	-29	-1%	-8
C/C(=N\OC(=O)c1ccc(Cl)c(Cl)c1)c1sc(C)nc1C	-2.4	-2	-15	27%	17
Cc1cccc(NC(=O)C(=O)NNC(=O)c2ccc(C(C)(C)C)cc2)c1	0.9	x	x	x	76
Brc1ccc2cccnc2c1	-1.0	4	20	0%	-3
CCCCn1c(N)c(N(CC(C)C)C(=O)c2ccc(COc3ccccc3)o2)c(=O)[nH]c1=O	4.2	x	x	x	6
NS(=O)(=O)c1ccc(CNC(=O)/C=C/c2c(Cl)cccc2Cl)cc1	5.3	-3	-24	x	-4
O=C(CC1CCCCC1)NCc1nc(-c2ccccc2)no1	1.2	x	x	x	-5
COC(=O)c1nn(-c2ccccc2)c(Sc2ccc(Cl)cc2)c1/C=N/O	2.7	4	-21	1%	-4
CN(Cc1cccnc1)Cc1cn(C)nc1-c1ccc(Oc2ccccc2)cc1	1.5	1	x	-2%	15
CCC(C(=O)OCC(=O)N(CCOC)c1c(N)n(Cc2ccccc2)c(=O)[nH]c1=O)c1ccccc1 (stereo not given)	0.1	x	x	x	-7
COc1c(C)cccc1C(=O)Nc1ccc(N2CCOCC2)c(Cl)c1	-1.2	-1	-12	6%	53
Cc1cccc(C(C#N)c2nc3ccccc3nc2C(F)(F)F)c1 (stereo not given)	6.4	x	-37	5%	-9
CN(CC(=O)Nc1ccc(F)cc1)C(=O)c1cc(-c2ccco2)nc2ccccc12	2.9	x	x	x	-8

Gathered by group: those above containing bromine.
SMILES	RecA intein inh	Arbovirus inh	YopH inh	Mtb H37Rv	Mtb bLac sens	others
CCOC(=O)C1CCN(C(=O)CCNS(=O)(=O)c2cc(Br)cnc2N)CC1	-3.4	x	x	x	u
Brc1ccc2cccnc2c1	-1.0	4	20	0%	-3

Further structures
SMILES	RecA intein inh	Arbovirus inh	YopH inh	Mtb H37Rv	Mtb bLac sens	others
Cn1nc(C(F)(F)F)c2cc(C(=O)NC3CC3)sc21	-0.2	-6	-24	-13%	-5
COc1cccc(CC2(CO)CCN(Cc3cccn3-c3cccnc3)CC2)c1	-2.6	6	x	-4%	0
O=C(CCCN1C(=O)CCC1=O)Nc1ccc2c(c1)OCO2	1.8	-4	20	2%	4
COc1ccc2c(C)cc(=O)[nH]c2c1	x	-6	-14	-1%	5
CCc1nc(C)cn1S(=O)(=O)c1cc([N+](=O)[O-])ccc1Cl	23	-3	x	0%	-2
CC(=O)c1ccc(NC(=O)CSc2cn[nH]n2)cc1	-2.3	x	x	x	9
Cc1cc(C(=O)Nc2cccc(O)c2)co1	0.3	5	-13	-3%	-3
CCOC(=O)C1CCCN(C(=O)C2CCN(c3nnc(-n4cccc4)s3)CC2)C1 (stereo not given)	0.4	-4	-1	-6%	-8	Arbovirus inh repeat=7
COCCCNC(=O)C1c2ccccc2Oc2ccccc21	6.7	x	x	x	1
CCOC(=O)c1c(C)[nH]c(C(=O)CN2C(=O)NC(C)(c3ccc4ccccc4c3)C2=O)c1C (stereo not given)	6.6	-25	-35	29%	97
CSCC[C@H](NC(=O)c1cccnc1)c1nnc2ccccn12	-0.9	x	x	x	-6
CCN(CC)CC(O)c1ccc(C2CCCC2)cc1 (stereo not given)	-0.4	-26	-15	-1%	-3
CCn1c(SCc2nc3ccccc3[nH]2)nnc1-c1cccnc1	-0.2	3	-16	15%	4

Molecules from the list above containing a COOH group (three):
SMILES	RecA intein inh	Arbovirus inh	YopH inh	Mtb H37Rv	Mtb bLac sens	others
O=C(O)c1cc(NC(=O)c2ccc([N+](=O)[O-])cc2)cc(NC(=O)c2ccc([N+](=O)[O-])cc2)c1	-2.3	x	x	x	-6
Cn1c(C(=O)O)c(CC(=O)N2CCN(Cc3ccccc3)CC2)c2ccccc21	0.5	1	-21	-14%	-6
CC1Cc2ccccc2N1C(=O)Cn1nc(C(=O)O)c2ccccc2c1=O (stereo not given)	-0.2	6	7	12%	-13
